KCNQ2 enhance: KCNQ2 (rat) channel potentiation. O88943. CHO-K1 KCNQ2, FluxOR thallium flux fluorescence; stronger effect = higher value. B-score at 10 µM. 310,000 tested, 0.54% active. AID 2239;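 active = fluorescence ratio B-score at least 3 SD of library B-scores, with initial fluorescence B-score within 3 SD, cut at about 5.3 in these data; same plate scores as AID 2156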;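 note: B-score of peak minus minimum over baseline fluorescence ratio after K+ and Tl+ stimulus; positive B-score means potentiation of KCNQ2 with more thallium influx and brighter signal; only the inactives scoring about 0 or higher are listed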
Target sequence (O88943 whole entry, looked up): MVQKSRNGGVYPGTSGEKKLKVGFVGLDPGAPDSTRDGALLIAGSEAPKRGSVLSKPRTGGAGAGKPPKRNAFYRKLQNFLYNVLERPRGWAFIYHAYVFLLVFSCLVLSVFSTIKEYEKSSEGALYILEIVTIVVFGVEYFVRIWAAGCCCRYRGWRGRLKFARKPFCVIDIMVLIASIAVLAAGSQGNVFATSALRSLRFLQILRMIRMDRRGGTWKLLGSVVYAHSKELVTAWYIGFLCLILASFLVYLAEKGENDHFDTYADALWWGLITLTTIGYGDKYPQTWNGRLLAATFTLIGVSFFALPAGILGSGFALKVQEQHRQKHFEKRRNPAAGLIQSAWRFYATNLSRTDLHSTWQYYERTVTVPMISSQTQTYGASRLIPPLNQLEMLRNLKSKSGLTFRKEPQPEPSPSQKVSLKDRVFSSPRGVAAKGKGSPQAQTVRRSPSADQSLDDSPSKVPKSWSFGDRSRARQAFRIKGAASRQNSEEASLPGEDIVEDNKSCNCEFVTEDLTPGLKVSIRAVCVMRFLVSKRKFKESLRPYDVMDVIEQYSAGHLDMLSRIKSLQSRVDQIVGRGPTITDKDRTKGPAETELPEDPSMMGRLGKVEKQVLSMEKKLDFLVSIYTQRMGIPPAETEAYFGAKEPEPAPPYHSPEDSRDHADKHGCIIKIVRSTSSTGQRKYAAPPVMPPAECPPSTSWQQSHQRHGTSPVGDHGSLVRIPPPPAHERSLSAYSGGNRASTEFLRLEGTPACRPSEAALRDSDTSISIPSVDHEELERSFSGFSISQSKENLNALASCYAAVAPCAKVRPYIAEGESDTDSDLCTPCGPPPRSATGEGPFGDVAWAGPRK
KCNQ2 enhance baseline: second read-out of KCNQ2 enhance, no call of its own (marks repeat the call); B-score; compound at 10 µM; measured here: initial fluorescence intensity artifact check;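 brightness before thallium and not channel activity; 0 = typical well and far values either way flag optical interference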
Numbers without * were called inactive.

SMILES	KCNQ2 enhance	KCNQ2 enhance baseline
O=C(Nc1ccc(-c2cnco2)cc1)c1ccc(F)cc1F	0.98	0
O=C(NC1CCCC1)C(c1ccccn1)N(Cc1ccc(F)cc1)C(=O)c1csnn1 (stereo not given)	1.35	-0.33
COc1ccc(CNc2ccc(S(=O)(=O)N3CCN(C)CC3)cn2)cc1OC	1.37	-0.18
O=C(NC(=S)Nc1ccc(CN2CCOCC2)cc1)c1ccc(-c2cccc(Cl)c2)o1	0.02	0.53
O=c1[nH]c2ccc(S(=O)(=O)Nc3ccc(-c4nnc5n4CCCCC5)cc3)cc2o1	1.59	0.09
CC1(C)C2([N+](=O)[O-])CN3CC1([N+](=O)[O-])CN(C2)C31CCCC1	0.04	0.36
COc1cccc(C(=O)Nc2nc(C)cs2)c1	1.23	-0.41
COc1ccc(CNC(=O)CSc2nc3ccc(OC)cc3[nH]2)cc1	1.68	0.69
COc1ccc(N2C(=O)/C(=C/c3cccs3)NC2=S)cc1	2.83	3.49
COc1ccccc1NS(=O)(=O)c1cc(NC(=O)c2ccc3ccccc3n2)ccc1Cl	0.25	-0.39
Cc1ccccc1NC(=O)c1ccc2ccccc2c1	0.19	-0.29
Cc1c(C(=S)NC(=O)C2CC2)c(=O)n(-c2ccccc2)n1C	2.12	-1.02
CC(=O)c1ccc(NC(=O)Cc2cccs2)cc1	0.2	-0.1
O=C(Cn1cnc2ccc(Cl)cc2c1=O)c1cccs1	0.7	-0.11
Cc1ccc(N2C(=O)c3ccc(C(=O)O)cc3C2=O)cc1C	1.1	0.31
O=C(NNc1cccc(Cl)n1)Nc1ccccc1	0.79	-0.22
COc1ccccc1C1/C(=C(/O)c2ccc(C)cc2)C(=O)C(=O)N1CC(C)O (stereo not given)	0.77	1.17
Cc1ccc(C)c(NC(=O)N2CCCCCC2)c1	2.06	-1.77
O=C(Cc1ccccc1)N[C@@H](Cc1ccccc1)C(=O)O	0.27	1.36
Cc1ccc2nc(C)cc(C(=O)N/N=C/c3ccncc3)c2c1	0.06	-1.42
O=C(NNS(=O)(=O)c1ccccc1)c1cccnc1	0.13	-4.18
CC1CCCC(C(=O)O)N1C(=O)CCSC(=O)c1ccccc1 (stereo not given)	0.82	-0.52
CCCC(=O)NC1=C(C#N)C2(CCCCC2)Cc2ccccc21	0.83	-1.67
CCCCN(C(=O)CN1C(=O)C2CC=CCC2C1=O)c1c(N)n(CCC)c(=O)[nH]c1=O (stereo not given)	2.39	-0.15
Cc1cc(C)n2nc(SCC(=O)c3ccc[nH]3)nc2n1	0.95	-0.18

Some of the entries above, set out differently:
Second line of a record: KCNQ2 enhance	KCNQ2 enhance baseline
COc1ccc(N2C(=O)/C(=C/c3cccs3)NC2=S)cc1
    2.83	3.49
COc1ccccc1NS(=O)(=O)c1cc(NC(=O)c2ccc3ccccc3n2)ccc1Cl
    0.25	-0.39

(list continues)
SMILES	KCNQ2 enhance	KCNQ2 enhance baseline
CCc1cc2c(=O)c(-c3cnn(-c4ccccc4)c3)c(C(F)(F)F)oc2c(CN(C)C)c1O	0.43	0.81
O=[N+]([O-])c1ccc(-c2nc(=S)c3c(o2)CCCC3)cc1	0.63	-0.53
O=C(Nc1ccccc1C(=O)NCc1cccnc1)c1ccccc1F	1.65	-1.78
O=C(O)c1cc(NC(=O)c2ccc(Br)cc2)cc(NC(=O)c2ccc(Br)cc2)c1	0.59	-0.7
Cc1ccc(S(=O)(=O)NC(C(=O)OCC(=O)NC(=O)c2cccn2C)C(C)C)cc1 (stereo not given)	0.09	-0.74
COc1ccc(CCNC(=O)COc2ccc(S(=O)(=O)N3CCOCC3)cc2)cc1OC	0.98	-0.88
Cc1ccccc1NC(=O)N1CCN(C/C=C/c2ccccc2)CC1	0.37	1.83
Nc1nnc(Cc2ccc(Cl)c(Cl)c2)s1	0.93	1.43
CC(=O)N/C(=N\c1nc(C)cc(C)n1)Nc1ccc2ccccc2c1	0.25	-0.62
CC(=O)Nc1ccc(S(=O)(=O)NC2=NCN(c3cccc([N+](=O)[O-])c3)CN2)cc1	1.44	-0.01
CCCNS(=O)(=O)c1ccc(NC(=O)c2cccnc2)cc1	1.31	1.23
COc1ccc(NC(=O)c2ccc(NC(=O)COC(=O)c3cnc(C)cn3)cc2)cc1	1.7	-0.17
Cc1cc(=O)oc2cc(OCC(=O)OCC(=O)NC3CC3)ccc12	0.08	0.58
C=CCN(CC=C)C(=S)NCCc1ccc(OC)c(OC)c1	0.32	0.21
O=C(Oc1c(Cl)cc(Cl)c2cccnc12)c1ccco1	1.46	-1.34
COCCCn1c(-c2ccc(S(=O)(=O)N3CCOCC3)cc2)csc1=Nc1ccccc1	0.62	-0.02
Cc1ccccc1-c1cc(=O)c2c(O)cccc2o1	0.02	1.6
CCN(c1ccccc1)S(=O)(=O)c1cc([N+](=O)[O-])ccc1N	5.04	-0.06
CCSc1nc2ccccc2n1Cc1cccc([N+](=O)[O-])c1	0.18	-0.15
COc1cccc(-c2nnc(SCC(=O)Nc3cc(C)on3)o2)c1	1.25	0.65
CCOC(=O)/C(C#N)=C\c1ccco1	0.69	0.65
COc1ccc(Cl)cc1NC(=O)CSc1nc(NS(=O)(=O)c2ccccc2)cc(=O)[nH]1	0.93	-0.29
CCOC(=O)c1cnc(-n2nc(C)cc2C)nc1NNc1ncc(-c2ccccc2)cn1	0.33	1.89
Cc1cc(=O)[nH]c(SCC(=O)NC2CCCc3ccccc32)n1 (stereo not given)	1.63	-0.05
N=c1oc2ccccc2cc1C(=O)Nc1ccc(F)cc1	0.35	-0.29

Structures shown so far that have an aryl methoxy group:
SMILES	KCNQ2 enhance	KCNQ2 enhance baseline
COc1ccc(CNc2ccc(S(=O)(=O)N3CCN(C)CC3)cn2)cc1OC	1.37	-0.18
COc1cccc(C(=O)Nc2nc(C)cs2)c1	1.23	-0.41
COc1ccc(CNC(=O)CSc2nc3ccc(OC)cc3[nH]2)cc1	1.68	0.69
COc1ccc(N2C(=O)/C(=C/c3cccs3)NC2=S)cc1	2.83	3.49
COc1ccccc1NS(=O)(=O)c1cc(NC(=O)c2ccc3ccccc3n2)ccc1Cl	0.25	-0.39
COc1ccccc1C1/C(=C(/O)c2ccc(C)cc2)C(=O)C(=O)N1CC(C)O (stereo not given)	0.77	1.17
COc1ccc(CCNC(=O)COc2ccc(S(=O)(=O)N3CCOCC3)cc2)cc1OC	0.98	-0.88
COc1ccc(NC(=O)c2ccc(NC(=O)COC(=O)c3cnc(C)cn3)cc2)cc1	1.7	-0.17
C=CCN(CC=C)C(=S)NCCc1ccc(OC)c(OC)c1	0.32	0.21
COc1cccc(-c2nnc(SCC(=O)Nc3cc(C)on3)o2)c1	1.25	0.65
COc1ccc(Cl)cc1NC(=O)CSc1nc(NS(=O)(=O)c2ccccc2)cc(=O)[nH]1	0.93	-0.29

The list goes on:
SMILES	KCNQ2 enhance	KCNQ2 enhance baseline
CCCCOC(=O)c1ccc(NC(=O)c2cnc3n(c2=O)CCS3)cc1	2.33	-1.29
O=C1C2C3C=CC(C3)C2C(=O)N1c1nccs1 (stereo not given)	1.76	1.11
COc1cccc(CNS(=O)(=O)c2c(C)nc3scc(C)n3c2=O)c1	0.01	0.12
CCc1ccc(NC(=O)C(C)OC(=O)C2CCN(c3ccc(C(F)(F)F)cn3)CC2)cc1 (stereo not given)	0.09	-0.09
O=C(CN1CCN(c2ccc(F)cc2)CC1)N1N=CCC1c1ccccc1 (stereo not given)	0.2	0
O=S(=O)(N/N=C/c1ccc2c(c1)OCCO2)c1ccccc1	1.24	0.23
COc1ccc(N2CCN(C(CNS(=O)(=O)c3ccccc3)c3ccccc3)CC2)cc1 (stereo not given)	0.12	-2.8
FC(F)(F)c1cnc(NNC(=S)Nc2ccc(Cl)cc2)c(Cl)c1	0.13	-0.6
O=C(CCCc1c[nH]c2ccccc12)Nc1ncccc1O	1.43	0.68
Cc1cccc(NC(=O)CCc2c(C)nc3ncnn3c2C)n1	1.63	-0.07
CCc1nc2sc3c(c2c(=O)n1N)CC(C)(C)OC3	1.9	-0.33
CC(C)CC1NC(=O)N(CC(=O)c2ccc3c(c2)OCCO3)C1=O (stereo not given)	1.05	1.08
COc1ccc(C2CC(=O)c3c(C)nc(N4CCN(c5ccccc5)CC4)nc3C2)cc1 (stereo not given)	0.05	1.06
CCN1C(=O)[C@@H]2[C@@H](c3ccc(-c4ccc(C(C)=O)cc4)cc3)N3CCC[C@@]3(C(=O)OC)[C@@H]2C1=O	0.16	-0.06
CCCCn1c(N)c(N(CCOC)C(=O)c2cc(-c3ccc(OC)c(OC)c3)nc3ccccc23)c(=O)[nH]c1=O	1.1	0.41
O=C(NNc1nc2ccccc2o1)c1ccccc1	0.14	2.28
COc1ccc(-c2nn(-c3ccccc3)cc2CNC(C)Cn2cncn2)c(F)c1 (stereo not given)	2.68	2.64
COc1ccc(/C=C/C(=O)Nc2ccc3nc4n(c(=O)c3c2)CCCC4)cc1OC	0.64	0.85
C=CCNC(=O)CCCOc1cc(C)ccc1C	0.22	-0.29
C=CCNc1oc(-c2ccc(OCC)cc2)nc1C#N	1.43	-0.53
Cc1nn(-c2ccccc2)c2c1C(c1ccccc1)C(C#N)=C(N)O2 (stereo not given)	0.3	-1.29
COc1cccc(NC(=O)Nc2cc(C)on2)c1	3.49	-0.65
O=C(CN1C(=O)C2CC=CCC2C1=O)NCc1cccs1 (stereo not given)	0.61	-0.35
COCCN(C(=O)c1csnn1)C(C(=O)NC1CCCCC1)c1cccs1 (stereo not given)	0.37	-1.45
Cc1ccc(C(=O)Nc2nc3ccccc3s2)s1	0.25	-0.11

Next records follow.
SMILES	KCNQ2 enhance	KCNQ2 enhance baseline
Cc1[nH]c2ccccc2c1/C=N/Nc1ccccc1[N+](=O)[O-]	0.48	0.39
Cc1ccccc1-c1cn(-c2ccccc2)c(=S)[nH]1	0.01	-1.02
O=C(CCNC(=O)c1ccc(Cl)cc1)NCc1cccc(C(F)(F)F)c1	1.03	0.51
COc1cccc(OC)c1C(=O)Nc1ccc(Cc2ccncc2)cc1	0.25	2.24
CC(C)NC(=O)c1cccc(Br)c1	0.58	1.16
CC(O)CNc1nc2c(c(=O)n(Cc3ccc(Br)cc3)c(=O)n2C)n1C (stereo not given)	1.98	2.17
C=C(C)Cn1c(CCCNC(=O)CC)nc2ccccc21	0.2	-0.01
Cc1ccc(NC(=O)c2ccc3c(c2)N(CC(=O)NC(C)C)C(=O)C(C)(C)O3)cc1	0.58	-0.57
Cc1cc(NC(=O)c2ccc([N+](=O)[O-])cc2)n(CCC#N)n1	0.23	-0.1
COCc1cc(C)nc(SC)c1C#N	0.15	-0.13
CCN(CC(=O)NC(C)(C)C)C(=O)c1ccc2c(c1)S(=O)(=O)c1ccccc1C2=O	0.1	1.62
CC(C)[C@@H](CO)NC(=O)c1ccc2c3n(nc2c1)-c1ccccc1CO3	1.65	0.46
COC(=O)c1ccc(N2C(=O)C3CC=CC(C)C3C2=O)cc1 (stereo not given)	1.26	0.89
Cc1noc(C)c1C(=O)Nc1ccc(C#N)cc1	2.07	0.37
CC(=O)N1CCN(c2nc(C)nc3sc4c(c23)CCC(C)C4)CC1 (stereo not given)	0.57	-1.31
COc1ccc2c3c(c(=O)oc2c1OCC(=O)O)CCCC3	1.24	1.07
CCOc1cc(/C=N/NC(=O)c2ccc(CN3CCOCC3)cc2)ccc1OC	2.61	0.11
COc1ccc(C(=O)NC(=S)NNC(=O)c2c(-c3ccccc3)noc2C)cc1OC	0.01	-3.61
CC(C)NC(=O)c1ccc2c(c1)N(CC(=O)N1CCCCC1)C(=O)C(C)(C)O2	0.39	1.99
O=C(c1nc2ccccn2c1CN1CCC(Cc2ccccc2)CC1)N1CCCC1	1.38	-1.06
O=C(NCC1CCCO1)c1c(O)c2ccccc2[nH]c1=O (stereo not given)	2.62	-0.33
Cc1ccc(NC(=O)/C=C/c2ccc([N+](=O)[O-])s2)cc1	1.18	-1.07
COc1ccccc1NC(=O)/C=C/C(=O)O	2.47	-2.41
O=C(CSc1ncn[nH]1)NCc1ccc(Cl)cc1	0.39	1.09
O=C(O)CCC(=O)NCc1ccc(C(=O)O)cc1	1.66	0.04

Next section.
SMILES	KCNQ2 enhance	KCNQ2 enhance baseline
COc1ccc(CCNc2nc(-c3ccco3)cc(C(F)(F)F)n2)cc1OC	0.04	-0.41
O=S(=O)(/N=C(/c1ccccc1)N1CCOCC1)c1ccc(Br)cc1	0.43	1.3
Cc1cccc(NC(=O)c2nc[nH]c2C(=O)NCC(=O)OCc2ccccc2)c1	0.79	-1.5
CC(C)NCc1cc(Br)ccc1OCc1ccccc1	0.25	-0.43
CCc1ccccc1N1CC(C(=O)Nc2cc(C)on2)CC1=O (stereo not given)	0.37	0.91
CCc1cc(=O)oc2c3c(cc(OCC(=O)NCc4cccnc4)c12)OC(C)(C)CC3	0.68	-0.51
COc1ccc(OCCSc2nc(N)cc(=O)[nH]2)cc1	1.76	-1.8
CCOc1ccc(S(=O)(=O)NNC(=S)Nc2ccc(Br)cc2)cc1	1.57	-1.14
CC(NCCC(c1ccccc1)c1ccccc1)c1ccccc1 (stereo not given)	0.97	-0.29
O=C(O)c1cc(-c2ccco2)nc2ccccc12	0.71	1.59
Cc1cccc(C(=O)N2CCCC(CCC(=O)N3CCN(c4ccccn4)CC3)C2)c1C (stereo not given)	0.65	-0.36
CN(C)C(C)(C)C#CCC(c1ccccc1)c1ccccc1	1.01	-1.03
CCN1CCN(Cc2nnc(-c3ccccc3)o2)CC1	1.19	1.93
C[C@@H]1NC(=O)N(CCCn2ccnc2)C1=O	1.09	2.02
Cc1c(-n2cccc2C=O)cccc1[N+](=O)[O-]	0.1	-1.28
CS(=O)(=O)N(CC(=O)NC1CCCCC1)c1cccc(Cl)c1	0.91	-0.95
O=C(CN1C(=O)c2ccccc2C1=O)Nc1cccc2cccnc12	0.26	-1.72
CC(=O)Cc1nsc(NC(=O)c2ccco2)n1	0.65	0.06
Cc1ccc(C(=O)N/C(=C\c2ccc(-c3cc(Cl)ccc3Cl)o2)C(=O)NCc2cccnc2)cc1	0.67	0.01
C=CCSC1=N/C(=C\c2cc(OCC)c(OC(C)=O)c([N+](=O)[O-])c2)C(=O)S1	7.11*	-3.98*
CC(NC(=O)CCCc1nnc2n(C)c(=O)c3sccc3n12)c1ccccc1 (stereo not given)	0.16	-0.81

Assay outcomes (PubChem)

This is a subset. The share of hits here may be higher or lower than overall.
